Screening data from PubChem BioAssay.
miR-21 reporter – qHTS Assay for Modulators of miRNAs and/orActivators of miR-21. Potency, µM (doses to about 38.3 µM), for inactives: at the highest dose reporter change, positive = more light. 340,000 tested, under 10 active. HeLa miR-21 FLuc reporter, luciferase, 48 h; active = well fitted rising curve with a large enough effect; inconclusive = small, poorly fitted or top-dose-only effect; inactive = no such curve, though single readings can be large or run the other way;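 note: % of control where 0% means no effect; miR-21 action dims this reporter so a rising signal means less miR-21 action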
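Using DMEM plus 10% FBS, HeLa miR-21-FLuc cells are incubated with test compounds (final up to about 40uM) for 48 hours; firefly luciferase signal is then imaged following reagent-mediated lysis.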
Rango release inh – qHTS Assay for Inhibitors of RanGTP induced Rango (Ran-regulated importin-beta cargo) - Importin beta complex dissociation | Biochemical FRET Rango-importin beta, RanGTP-induced dissociation | actives 0.071% (n = 340,000) | Potency, µM (titrated, usually from 46.1 µM), inactives show top-dose activity change, negative = inhibition | Snurportin-1 (Homo sapiens) + GTP-binding nuclear protein Ran (Homo sapiens) + Importin … | AID 540253, 2011; active means falling FRET ratio curve, often poorly fitted, with flat reads before Ran was added; inconclusive means other falling curves, or compound fluorescence or quenching; inactive means flat or rising ratio curve;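 note: potency is the fitted concentration of half-maximal effect; % of control where 0% means no effect; nearly all actives have a fitted effect of over 45% in size; -100% = wells without RanGTP and RCC1; the record marks most hits as doubtful in a second field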
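Quantitative HTS using a FRET biosensor: 0.1 uM Rango, 0.25 uM importin beta, 0.6 uM Ran, 2 mM GTP, 0.2 uM RCC1 final, PBS with DTT, Tween-20 and BSA. Post-read taken 45 min after Ran addition.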
Rango-impB inh – qHTS Assay for Inhibitors of Rango (Ran-regulated importin-beta cargo) - Importin beta complex formation. Potency, µM (doses to about 92.2 µM), for inactives: at the top dose inhibition of complex formation. Rango CFP/YFP FRET sensor + importin beta, 45 min. actives 0.031% (n = 340,000); active = rising FRET ratio curve, often small or poorly fitted; inconclusive = mostly compound fluorescence or quenching in the first reads; inactive = flat curves in all reads;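 note: potency is the fitted concentration of half-maximal effect; 0% = DMSO wells and 100% = buffer wells lacking importin beta; nearly all actives have a fitted effect of over 15% in size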
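FRET biosensor (snurportin 1 IBB flanked by EYFP and cerulean), 50 nM, with compound 5 min, then 0.125 microM importin beta in PBS, 1 mM DTT, 0.02% Tween-20, 0.1% BSA. CFP/YFP ratio read after 45 min at room temperature; pre-read flags interference.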
GLA inh pH 4.5 – qHTS Assay for Inhibitors of Human alpha-Galactosidase at pH 4.5 | Alpha-galactosidase A (Homo sapiens), P06280 | purified enzyme, 4-MU-alpha-Gal fluorescence, pH 4.5 | activity change, negative = inhibition, % at 105 µM | 230,000 tested, under 10 active | AID 1467, 2008; inconclusive = small, poorly fitted or top-dose-only inhibition, or a rising curve; inactive = flat fitted curve, though single readings scatter; no compound was filed as active;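 note: 0% = full activity with enzyme and -100% = basal without enzyme; dose as in the result columns while the protocol names 77 µM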
Target sequence (P06280 whole entry, looked up): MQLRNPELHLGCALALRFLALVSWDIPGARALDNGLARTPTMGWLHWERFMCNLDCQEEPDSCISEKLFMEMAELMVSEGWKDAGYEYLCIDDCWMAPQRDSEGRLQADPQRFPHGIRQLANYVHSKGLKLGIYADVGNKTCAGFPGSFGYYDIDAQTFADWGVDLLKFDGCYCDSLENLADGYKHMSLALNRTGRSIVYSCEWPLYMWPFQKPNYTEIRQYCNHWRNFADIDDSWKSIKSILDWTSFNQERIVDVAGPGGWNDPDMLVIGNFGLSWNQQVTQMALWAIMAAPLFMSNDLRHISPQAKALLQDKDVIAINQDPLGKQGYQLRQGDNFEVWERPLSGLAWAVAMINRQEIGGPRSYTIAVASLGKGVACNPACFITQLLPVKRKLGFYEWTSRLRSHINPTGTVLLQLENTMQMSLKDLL
The depositor's hits bear a star; & = joins results of further samples. An excerpt (hit frequency here may not be typical).

A first look:
Screening COc1cc2c(cc1NC(=O)c1cccc(S(=O)(=O)N(C)C)c1)oc1ccccc12 returned miR-21 reporter -22%, Rango release inh 1%, Rango-impB inh -5.3% and GLA inh pH 4.5 5.
For CC(=O)c1ccc(NS(=O)(=O)c2cccc(C(=O)Nc3ccccc3C(=O)O)c2)cc1 the results were miR-21 reporter 15%, Rango release inh inconclusive and Rango-impB inh 3.5%.
For CN1CCc2c(n(CC(O)CN3CCN(CCO)CC3)c3ccccc23)C1=O (stereo unspecified) the results were miR-21 reporter -1%, Rango release inh -9%, Rango-impB inh inconclusive and GLA inh pH 4.5 -7.
`O=C(Cc1cccs1)NC(Cc1c[nH]c2ccccc12)C(=O)O` (stereo unspecified) gave miR-21 reporter 2%, Rango release inh -15% and Rango-impB inh 0.6%.

Results, previewed entries included:
Screening COc1cc2c(cc1NC(=O)c1cccc(S(=O)(=O)N(C)C)c1)oc1ccccc12 returned miR-21 reporter -22%, Rango release inh 1%, Rango-impB inh -5.3% and GLA inh pH 4.5 5.
For CC(=O)c1ccc(NS(=O)(=O)c2cccc(C(=O)Nc3ccccc3C(=O)O)c2)cc1 the results were miR-21 reporter 15%, Rango release inh inconclusive and Rango-impB inh 3.5%.
For CN1CCc2c(n(CC(O)CN3CCN(CCO)CC3)c3ccccc23)C1=O (stereo unspecified) the results were miR-21 reporter -1%, Rango release inh -9%, Rango-impB inh inconclusive and GLA inh pH 4.5 -7.
`O=C(Cc1cccs1)NC(Cc1c[nH]c2ccccc12)C(=O)O` (stereo unspecified) gave miR-21 reporter 2%, Rango release inh -15% and Rango-impB inh 0.6%.
`CC(=O)N1[C@H](Cc2ccccc2)C=C[C@]1(C)C(=O)NCc1ccc(C)o1` gave miR-21 reporter -13%, Rango release inh 18%, Rango-impB inh inconclusive and GLA inh pH 4.5 7&-4.
`NC(=O)c1ccsc1NC(=O)C1CC1` gave miR-21 reporter -1%, Rango release inh -2%, Rango-impB inh -2.5% and GLA inh pH 4.5 4.
For O=C1CC(N2CCCc3ccccc32)C(=O)N1c1ccccc1 (stereo unspecified) the results were miR-21 reporter -16%, Rango release inh 1%, Rango-impB inh -2.0% and GLA inh pH 4.5 4.
Screening O=c1cc(CSc2ccc(Cl)cc2)nc(-c2ccccc2)[nH]1 returned miR-21 reporter -4%, Rango release inh -12%, Rango-impB inh 2.7% and GLA inh pH 4.5 -6.
CC(=O)c1ccc(NS(=O)(=O)c2ccc(N)cc2)cc1 was read as miR-21 reporter -16%, Rango release inh inconclusive, Rango-impB inh inconclusive and GLA inh pH 4.5 5.
Screening O=C(O)COc1ccc(Br)cc1/C=N\Nc1ccccn1 returned miR-21 reporter 4%, Rango release inh 30% and Rango-impB inh -6.0%.
`COc1ccc(/C(C)=N/NC(=O)c2nnn(-c3nonc3N)c2-c2cccs2)cc1` gave miR-21 reporter 0%, Rango release inh -11% and Rango-impB inh 5.4%.
O=C(Nc1nnc(C2CC2)s1)c1cc(S(=O)(=O)N2CCCCC2)ccc1N1CCOCC1 was read as miR-21 reporter -2%, Rango release inh 2%, Rango-impB inh inconclusive and GLA inh pH 4.5 9.
CC1CN(Cc2c(O)ccc3c(=O)c(-c4ccccc4)coc23)CC(C)O1 (stereo unspecified) was read as miR-21 reporter -3%, Rango release inh -5%, Rango-impB inh 1.1% and GLA inh pH 4.5 6.
Screening FC(F)(F)c1ccc(Oc2ccc(Cl)cc2Br)nc1 returned miR-21 reporter 1%, Rango release inh 38%, Rango-impB inh -0.1% and GLA inh pH 4.5 -8.
Screening CCn1c(SCc2nnc(-c3ccccc3)o2)nnc1-c1ccc(S(=O)(=O)N2CCCC2)cc1 returned miR-21 reporter 5%, Rango release inh -3%, Rango-impB inh -0.7% and GLA inh pH 4.5 5.

Copied from above, 2 compounds:
Screening FC(F)(F)c1ccc(Oc2ccc(Cl)cc2Br)nc1 returned miR-21 reporter 1%, Rango release inh 38%, Rango-impB inh -0.1% and GLA inh pH 4.5 -8.
Screening CCn1c(SCc2nnc(-c3ccccc3)o2)nnc1-c1ccc(S(=O)(=O)N2CCCC2)cc1 returned miR-21 reporter 5%, Rango release inh -3%, Rango-impB inh -0.7% and GLA inh pH 4.5 5.

The list goes on.
COc1ccc(-c2nc(-c3ccccc3)c(-c3cc([N+](=O)[O-])ccc3C)[nH]2)cc1O was read as miR-21 reporter 22%, Rango release inh 3%, Rango-impB inh 0.6% and GLA inh pH 4.5 inconclusive.
Screening CC(=O)NCCn1ccc2ccccc21 returned miR-21 reporter -2%, Rango release inh 13%, Rango-impB inh -0.1% and GLA inh pH 4.5 0.
For O=C(Nc1ccccc1C(=O)NCc1cccnc1)c1ccc(Cl)cc1Cl the results were miR-21 reporter -4%, Rango release inh -5%, Rango-impB inh -3.1% and GLA inh pH 4.5 0.
`CCN(CC(=O)NCc1ccc(F)cc1)C(=O)Cc1c(F)cccc1Cl` gave miR-21 reporter 7%, Rango release inh -1% and Rango-impB inh -1.2%.
`O=C(CCNC(=O)c1ccc(Br)cc1)NNC(=O)COc1ccccc1F` gave Rango release inh 4% and Rango-impB inh 1.1%.
COc1ccc(NC(=O)C(C)N(C)Cc2ccc3ccccc3c2)cc1 (stereo unspecified) was read as miR-21 reporter 0%, Rango release inh 2% and Rango-impB inh 17%.
`CCOc1ccc2nc(NC(=O)COC)sc2c1` gave miR-21 reporter -22%, Rango release inh 1%, Rango-impB inh 0.1% and GLA inh pH 4.5 4.
Screening CC(C)c1c(C(=O)N/N=C/c2ccccc2C(=O)O)nnn1-c1nonc1N returned miR-21 reporter -6%, Rango release inh 0% and Rango-impB inh -0.7%.
For COCC(C)NC(=O)Cc1ccc(F)cc1 (stereo unspecified) the results were miR-21 reporter 3%, Rango release inh -3%, Rango-impB inh -1.3% and GLA inh pH 4.5 6.
CN(C)CCCNC(=O)CCc1ncc(C(F)(F)F)cc1Cl was read as miR-21 reporter -1%, Rango release inh 1%, Rango-impB inh 4.4% and GLA inh pH 4.5 2.
Screening C=CCNC(=S)Nc1ccc(C)c(S(=O)(=O)N2CCCCC2)c1 returned miR-21 reporter 7%, Rango release inh 9%, Rango-impB inh 6.3% and GLA inh pH 4.5 -12.
CC1=C(C(=O)N2CCCCC2)C2(CCC(C)CC2)OC1=O (stereo unspecified) was read as miR-21 reporter -3%, Rango release inh 6%, Rango-impB inh -2.1% and GLA inh pH 4.5 5.
For Cc1ccc(S(=O)(=O)n2c([N+](=O)[O-])cnc2C)cc1C the results were miR-21 reporter 1%, Rango release inh 2%, Rango-impB inh -0.2% and GLA inh pH 4.5 -2.
For O=C(Nc1nnc(-c2ccc(F)cc2)o1)c1ccc(S(=O)(=O)N2CCOCC2)cc1 the results were miR-21 reporter 3%, Rango release inh 1% and Rango-impB inh 4.4%.
For COc1ccc(CCNC(=O)CN2CCC(C)CC2)cc1OC the results were miR-21 reporter -2%, Rango release inh -9%, Rango-impB inh -1.5% and GLA inh pH 4.5 -17.
Cc1nc(-c2cccc(N)c2)cs1 was read as miR-21 reporter -21%, Rango release inh 1%, Rango-impB inh 0.0% and GLA inh pH 4.5 -1.
COc1cccc(C(=O)N2CCN(Cc3ccccn3)CC2)c1 was read as miR-21 reporter -5%, Rango release inh -2% and Rango-impB inh 4.6%.
CN(Cc1ccccc1)C(=O)c1ccc(NC(=O)Cc2ccc(NC(=O)C3CCCN(C(=O)C4CC4)C3)cc2)cc1 (stereo unspecified) was read as Rango release inh -1% and Rango-impB inh 2.0%.
For O=C(c1cc2ccccc2cc1O)N1CCN(c2ccccc2O)CC1 the results were Rango release inh 17% and Rango-impB inh 0.2%.
C=CCn1c(=O)/c(=C/c2ccc(Cl)cc2)s/c1=C(\C#N)c1nnc2n1CCCCC2 was read as Rango release inh -5% and Rango-impB inh -0.2%.
`COCCCn1c(=O)c2ccccc2n(Cc2ccccc2)c1=O` gave miR-21 reporter 0%, Rango release inh 9% and Rango-impB inh -1.4%.
For CCNc1nc(NC#N)nc(SCC(=O)OCC)n1 the results were miR-21 reporter -3%, Rango release inh -13%, Rango-impB inh -2.1% and GLA inh pH 4.5 -1.
Screening COc1ccc(C2C(C(=O)NCCN3CCOCC3)c3ccccc3C(=O)N2C)cc1OC (stereo unspecified) returned miR-21 reporter 0%, Rango release inh 17%, Rango-impB inh 2.6% and GLA inh pH 4.5 3.
CCCCn1c(SCn2nnc3ccccc3c2=O)nc2cc(C(=O)OC)ccc2c1=O was read as miR-21 reporter 0% and GLA inh pH 4.5 -4.
Screening COc1cc(Br)c(C(C)NC(=O)c2cccc(Br)c2)cc1OC (stereo unspecified) returned miR-21 reporter -4%, Rango release inh 9%, Rango-impB inh 4.6% and GLA inh pH 4.5 -1.
Screening Cc1cc2c(cc1C)C(c1ccccc1OC(C)C)CC(=O)N2 (stereo unspecified) returned miR-21 reporter 18%, Rango release inh 8% and Rango-impB inh -0.6%.
For O=C(NCc1cccs1)C1CCCN(C(=O)Nc2ccccc2)C1 (stereo unspecified) the results were miR-21 reporter 15%, Rango release inh 11% and Rango-impB inh -3.2%.
For COc1ccc(N2Cc3ccccc3C2=NC(=O)c2cccc([N+](=O)[O-])c2)cc1 the results were miR-21 reporter -62%, Rango release inh -2%, Rango-impB inh -2.7% and GLA inh pH 4.5 5.
`O=C(CCC(=O)N1CCOc2ccccc21)NCc1cccnc1` gave miR-21 reporter 1%, Rango release inh -13% and Rango-impB inh -0.6%.
Screening C=CCNc1sc(C(=O)c2ccc(Br)s2)c(N)c1C#N returned miR-21 reporter -2%, Rango release inh inconclusive, Rango-impB inh inconclusive and GLA inh pH 4.5 -1.
Screening Cc1ccc(C2NC(c3ccc(C)cc3)C(C)C(=NO)C2C)cc1 (stereo unspecified) returned miR-21 reporter 6%, Rango release inh -9%, Rango-impB inh -1.3% and GLA inh pH 4.5 -14.
Cc1ccccc1C(=O)Nc1nnc(S(=O)(=O)N2CCCCCC2)s1 was read as miR-21 reporter -4%&-62%, Rango release inh 0% and Rango-impB inh -0.4%.
COc1ccc(NC(=O)C2CCCN(S(=O)(=O)c3ccc4c(c3)CC(C)N4C(C)=O)C2)cc1 (stereo unspecified) was read as miR-21 reporter 0%, Rango release inh 1% and Rango-impB inh -1.3%.
Screening COc1ccc(N(CC(=O)Nc2ccccc2C(=O)O)S(=O)(=O)c2ccc(C)c([N+](=O)[O-])c2)cc1 returned miR-21 reporter -3%, Rango release inh 14%, Rango-impB inh -2.3% and GLA inh pH 4.5 -15.
`O=C(COC(=O)/C=C/c1ccc2c(c1)OCO2)NC1CC1` gave miR-21 reporter -3%, Rango release inh 8%, Rango-impB inh -4.3% and GLA inh pH 4.5 7.
For CCC1=NN(S(=O)(=O)c2ccc(C)cc2)C(O)(C(F)(F)F)C1 (stereo unspecified) the results were miR-21 reporter 3%, Rango release inh 49%, Rango-impB inh inconclusive and GLA inh pH 4.5 -2.
O=C(/C=C/c1ccccc1Cl)NCCc1ccc(F)cc1 was read as miR-21 reporter -46%, Rango release inh 7%, Rango-impB inh 2.9% and GLA inh pH 4.5 -1.
Cc1cc2oc(C(=O)N3CCN(CCc4ccccn4)CC3)c(C)c2cc1C was read as miR-21 reporter -14%, Rango release inh 17% and Rango-impB inh -0.2%.
Screening CC(Sc1ccccn1)C(=O)Nc1ccccc1 (stereo unspecified) returned miR-21 reporter -47%, Rango release inh 3%, Rango-impB inh 0.2% and GLA inh pH 4.5 2.
Screening Cc1ccc(C)c(N2CC(=O)N(c3cc(C)ccc3C)CC2=O)c1 returned miR-21 reporter -5%, Rango release inh 22%, Rango-impB inh -1.0% and GLA inh pH 4.5 -1.
Screening N/C(=N\OC(=O)COc1ccc([N+](=O)[O-])cc1)c1ccc(Br)cc1 returned miR-21 reporter 4% and GLA inh pH 4.5 1.
For O=C(CCCOc1ccccc1)N1CCN(S(=O)(=O)c2ccc(Cl)cc2)CC1 the results were Rango release inh -1% and Rango-impB inh 0.1%.
